From PubChem
Ecoli rRNA inh – inhibitors of bacterial rRNA selective over humanized ribosomes; E. coli WT GFP vs humanized-ribosome RFP mutants, fluorescence, 24 h; hits give low values; DMSO median 0, no signal -100; GFP signal change (wild-type ribosome), % (no concentration beside the values); actives 1.6% (n = 350,000); AID 720706;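 active means significant combined selectivity score with lowered wild-type GFP, culture density cut under 30%, mutant RFP and density less affected; inactive means any of these conditions unmet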; further: one replicate is shown; some compounds called inactive have numbers as strong as hits
T cruzi inh – T. cruzi replication inhibition | T. cruzi beta-gal in NIH3T3, luminescence, 90 h | inhibition, % (concentration not given with the values) | actives 1.4% (n = 300,000) | AID 1885;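 active means mean inhibition across valid replicates above about 55%, limit read from the data; inconclusive means mean below that limit but half or more replicates reach it; inactive means mean below it, under half of replicates reach it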;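 further: signal also drops with host cell toxicity which is not excluded here; 0% = plate median of DMSO wells and 100% = zero luminescence signal; higher percent means less beta-gal luminescence so fewer parasites; stock transfer was 50 nL into about 50 µL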
ALR H2O2 inh – inhibitors of human sulfhydryl oxidase ALR; P55789; purified ALR, DTT oxidation, H2O2 HRP-luminol luminescence; inhibition, % (test concentration not listed); actives 3.8% (n = 290,000); AID 485317;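 active means mean and each replicate at 75% or more; inconclusive means only one of the two met; inactive means neither met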;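 further: stock transfer was 7.5 nL into about 7.5 µL; 0% = neutral wells and 100% = wells with inactivated enzyme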
Beta cell apopt – beta cell apoptosis inhibition; protection from apoptosis, % (concentration not given with the values); actives 0.8% (n = 300,000); INS-1E cytokine-induced death, ATP luminescence, 48 h; percent of positive-control rescue, neutral wells zero;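 active means all replicates at 75% or more, or half of them and the mean; inconclusive means half reach 75% but not the mean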;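 further: 0% = cytokine-treated negative control wells and 100% = positive control rescue; higher means more ATP so stronger rescue from cytokine killing; wells of about 40 µL received 100 nL stock; the first replicate is given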
B2AR ag – activates human beta-2 adrenergic receptor causing internalization | P07550 | Am2.2-beta2AR cells, FAP receptor internalization, flow cytometry; reference of the scale not given here | response, % (concentration not given with the values) | actives 0.43% (n = 340,000) | AID 504454;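 active means response above a set limit, near 3 SD of response in nonfluorescent compounds, cut at about 42% in these data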;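 further: stock transfer was 100 nL into about 11 µL; a reference agonist was the positive control; negative values mostly stem from fluorescent compounds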
Bfl-1 A1 inh – inhibitors of the anti-apoptotic protein A1, read as caspase activation | MEF A1-2A-BIM cells, Caspase-Glo 3/7 luminescence, 3 h; percent of clofoctol response, vehicle zero | caspase activation, % (no concentration beside the values) | actives 0.066% (n = 330,000) | AID 2462;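 active means over half of replicate activation scores above 10%, or exactly half above 10 with the replicate mean above 10; inconclusive means replicate mean below 10 yet half the replicates above 10; inactive means over half of replicates below 10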;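 further: wells of about 30 µL received 50 nL stock; many hits fall short of the cut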
Calb FLC – C. albicans growth modulation with fluconazole. C. albicans CaCi-2 (fluconazole-resistant clinical isolate) + fluconazole, Alamar Blue growth, 48 h. growth inhibition, % (test concentration not listed). actives 0.57% (n = 300,000);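 active means most replicates above 75%; inconclusive means exactly half above 75%; inactive means most below 75%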;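 further: all wells also contain fluconazole at 8 µg/ml as a sub-toxic cotreatment; 0% = median of DMSO wells and 100% = median of geldanamycin control wells; wells of about 8 µL received 7.5 nL stock; the first replicate is given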
LANA-H2B inh – blocks KSHV LANA binding to histone H2A/H2B. Q9QR71. cell-free LANA-H2A/H2B peptide, fluorescence polarization. inhibition, % (test concentration not listed). actives 0.6% (n = 320,000); in the data active means inhibition mostly above about 10%, no sharp cut-off; inactive means mostly below about 6.7%;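 further: stock transfer was 7.5 nL into about 10 µL; 0% = median of vehicle wells and 100% = median of positive control wells; one replicate is shown; the record names a cut of 25% in any replicate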
Target sequence (Q9QR71 whole entry, looked up): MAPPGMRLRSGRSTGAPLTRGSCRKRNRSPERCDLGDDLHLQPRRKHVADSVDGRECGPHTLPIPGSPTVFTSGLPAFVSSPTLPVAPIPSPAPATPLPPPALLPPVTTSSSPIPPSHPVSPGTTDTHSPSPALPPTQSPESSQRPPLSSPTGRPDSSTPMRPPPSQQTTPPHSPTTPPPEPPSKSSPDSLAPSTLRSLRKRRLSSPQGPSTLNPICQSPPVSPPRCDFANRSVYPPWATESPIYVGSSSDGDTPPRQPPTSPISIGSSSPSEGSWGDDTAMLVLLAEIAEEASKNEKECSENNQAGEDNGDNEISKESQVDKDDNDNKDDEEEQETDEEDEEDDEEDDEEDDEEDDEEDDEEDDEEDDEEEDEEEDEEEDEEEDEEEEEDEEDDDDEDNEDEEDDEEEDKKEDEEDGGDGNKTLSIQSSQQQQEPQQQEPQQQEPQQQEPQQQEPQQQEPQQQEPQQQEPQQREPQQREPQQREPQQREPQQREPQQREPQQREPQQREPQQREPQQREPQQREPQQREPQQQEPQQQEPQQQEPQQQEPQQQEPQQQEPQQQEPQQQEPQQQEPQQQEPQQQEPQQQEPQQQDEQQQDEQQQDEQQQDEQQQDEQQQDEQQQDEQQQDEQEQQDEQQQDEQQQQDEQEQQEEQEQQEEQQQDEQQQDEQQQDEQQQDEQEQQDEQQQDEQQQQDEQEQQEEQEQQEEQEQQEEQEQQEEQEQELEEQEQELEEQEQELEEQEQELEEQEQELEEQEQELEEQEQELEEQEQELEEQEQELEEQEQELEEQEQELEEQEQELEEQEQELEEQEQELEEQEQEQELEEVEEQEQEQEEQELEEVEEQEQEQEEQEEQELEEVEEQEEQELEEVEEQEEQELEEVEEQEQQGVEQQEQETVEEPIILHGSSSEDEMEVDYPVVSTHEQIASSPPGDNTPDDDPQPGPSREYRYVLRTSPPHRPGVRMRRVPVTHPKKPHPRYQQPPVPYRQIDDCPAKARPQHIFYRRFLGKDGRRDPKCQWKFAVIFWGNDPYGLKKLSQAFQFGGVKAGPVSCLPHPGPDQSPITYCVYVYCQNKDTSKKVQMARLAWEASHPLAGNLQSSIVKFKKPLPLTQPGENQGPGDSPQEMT
Ecoli rRNA inh OD600 – recorded beside Ecoli rRNA inh, whose call it bears; OD600 change, %; measured here: OD600 growth;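 optical density of the mix in the first replicate; 0 = DMSO median and -100 = no signal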
Ecoli rRNA inh RFP – further read-out of Ecoli rRNA inh, marked with its call; RFP signal change, %; measured here: RFP humanized mutant strains;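 first replicate; 0 = DMSO median and -100 = no signal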
Active calls of the source: *; ? = inconclusive; . = not tested or not shown; & = joins results of further samples; ! = not confirmed by another sample. The list is partial; the hit share may differ from the screen's.

Every second line gives: Ecoli rRNA inh | Ecoli rRNA inh OD600 | Ecoli rRNA inh RFP | T cruzi inh | ALR H2O2 inh | Beta cell apopt | B2AR ag | Bfl-1 A1 inh | Calb FLC | LANA-H2B inh
[1] NS(=O)(=O)c1cc2c(cc1C(F)(F)F)NC(Cc1ccccc1)NS2(=O)=O (configuration not stated)
→ . | . | . | -10 | -2 | -6 | 3 | -0.3 | . | -1.4
[2] CCCOc1ccccc1-c1nc2n[nH]nc2c(=O)[nH]1
→ -6 | -10 | -4.2 | -23 | -5 | -2 | -2 | 0.1 | . | -8.8
[3] O=C1NCC2(CCN(CCc3ccccc3)CC2)O1
→ . | . | . | -11 | . | -3 | -4 | -0.9 | . | 0.8
[4] CC(C)=CC(=O)O[C@@H]1Cc2cc3ccc(=O)oc3cc2OC1(C)C
→ -13 | -16 | -5.4 | . | 2 | 1 | -15 | -0.6 | . | 0.1
[5] COc1nc(C)nc(Cl)c1NC1=NCCN1
→ . | . | . | -16 | 12 | 2 | -4&3 | 1.5 | . | 1.4
[6] CCC[C@H](N[C@@H](C)C(=O)N1[C@H](C(=O)O)C[C@@H]2CCCC[C@@H]21)C(=O)OCC
→ . | . | . | . | -2 | 3 | -2 | -0.3 | . | 9.0
[7] CC1(C)O[C@H]2CC(=O)OCC23[C@H]2CC[C@@]4(C)[C@H](c5ccoc5)OC(=O)[C@H]5O[C@]54[C@]2(C)C(=O)C[C@@H]13 (some centres not stated)
→ 8 | 8 | 19 | -3 | -11 | 1 | -3 | 0.1 | -5 | 6.1
[8] CCOC(=O)C1(CCOc2ccccc2)CCN(Cc2ccc(O)c(Cl)c2)CC1
→ -22 | -42 | 1.2 | -4 | 7 | 12 | 1 | -0.1 | 7 | -0.2
[9] Cc1nc2c3ccccc3nc(NNC(=O)CCC(=O)N3CCN(c4ccccc4)CC3)n2n1
→ 1 | 5 | -2.3 | 8 | 34 | 1 | 8 | -0.2 | 2 | -1.5
[10] O=C(O)COC(=O)Cc1ccccc1Nc1c(Cl)cccc1Cl
→ . | . | . | -8 | 1 | 2 | 18 | 0.3 | . | 6.1
[11] Cc1onc(-c2ccccc2Cl)c1C(=O)N[C@@H]1C(=O)N2[C@@H]1SC(C)(C)[C@@H]2C(=O)O
→ . | . | . | . | -12 | 3&1 | -1&-1 | 0.0&0.1 | . | -1.6&5.3
[12] c1ccc2c(CC3=NCCN3)cccc2c1
→ 3 | 7 | -2.4 | -1 | -10 | 5 | 6 | -0.3 | . | 2.1&-7.5
[13] O=c1cc[nH]c(=O)[nH]1
→ . | . | . | -22 | 3 | -2 | 5 | 0.2 | -9 | -2.1
[14] Nc1ccc(C(=O)Nc2ccccc2N)cc1
→ 4 | 12 | -4.4 | -27 | . | -4 | -3 | -0.1 | -2 | -3.1
[15] C/C=C/C=N\NC(=O)c1ccncc1
→ . | . | . | -14 | -13 | -3 | 2 | 0.2 | . | -4.4
[16] O=C(O)[C@@H]1[C@H]2C[C@H]3c4[nH]c5ccccc5c4CCN3C[C@@H]2CC[C@@H]1O
→ 9 | 5 | 39 | . | -20 | -3 | -12 | -0.4 | . | 4.8
[17] C[C@]12CC[C@H]3[C@@H](CCC4=CC(=O)CC[C@@]43C)[C@@H]1CC[C@@H]2C(=O)CO
→ -25 | -36 | 1.3 | 21 | 7 | . | -6 | -0.9 | . | 3.3&8.0
[18] CC(Oc1c(Cl)cccc1Cl)C1=NCCN1 (configuration not stated)
→ . | . | . | 0 | -8 | 2 | . | -1.1 | . | -4.3
[19] CC1=NN(c2ccccc2)C(=O)C1
→ . | . | . | 0 | -11 | -2 | -4 | 1.6 | . | 1.7
[20] COc1c(O)cc2c(c1O)C1OC(CO)C(O)C(O)C1OC2=O (configuration not stated)
→ -22* | -23* | 1.1* | . | 25 | -2 | 0 | -0.1 | . | 2.0
[21] CC(=O)N1C[C@H](O)C[C@H]1C(=O)O
→ . | . | . | . | 6 | 0 | -1 | -0.4 | . | 5.0
[22] CC(C)Cn1cnc2c1c(=O)n(C)c(=O)n2C
→ 3 | -6 | 4.3 | 8 | -14 | -1 | -5 | 1.4 | . | -3.0
[23] COc1ccc(CN(CCN(C)C)c2ccccn2)cc1
→ 7 | 7 | 1.1 | 12 | -2&-8 | -3&-1 | -6&3&4 | 0.0&-0.2 | . | -14&-4.2
[24] CCOc1ccc(S(=O)(=O)N2CCCCCC2)c2ccccc12
→ . | . | . | 7 | -5 | -3 | -4 | 0.4 | 24 | -4.7
[25] CCCn1ncc(CN2CCCC(C(=O)c3cccc(OC(C)C)c3)C2)c1C (configuration not stated)
→ 8 | 1 | -3.1 | 55* | -2 | -2 | -6 | 0.2 | -23 | 1.9
[26] O=C1N(c2ccccc2)c2ccccc2C1(Cc1ccncc1)Cc1ccncc1
→ -6 | -11 | -1.4 | -6&-12 | 0 | -1 | 6 | 0.6 | . | 4.9
[27] COc1ccccc1OCC(O)COC(N)=O (configuration not stated)
→ 5 | 5 | -3.8 | 0 | . | -6 | 10 | -0.7 | . | -1.6&2.2
[28] CCCCCCCCO
→ 1 | 4 | 2.5 | . | 18 | -7 | 2 | 0.1 | . | -1.1
[29] Cc1coc2c1C(=O)C(=O)c1c-2ccc2c1CCCC2(C)C
→ . | . | . | -18 | 5 | 0 | 7 | -0.4 | 13 | -17
[30] CC(=O)O[C@]1(C(C)=O)CC[C@H]2[C@@H]3C=C(Cl)C4=CC(=O)[C@@H]5C[C@@H]5[C@]4(C)[C@H]3CC[C@@]21C
→ -12&-41 | -22&-68 | 6.2&-6.7 | -11 | -10&-33 | -3&0 | 13&1 | 0.4&0.6 | . | 15*!
[31] N=C(N=C(N)N)N1CCOCC1
→ . | . | . | 2 | -8 | . | 3 | 0.3 | -1 | 0.7
[32] CN(C)CCCN1c2ccccc2Sc2ccccc21
→ . | . | . | 10 | 98* | -4 | 33 | ? | . | 6.6

Whole records as entered above.
Listed for COc1nc(C)nc(Cl)c1NC1=NCCN1 = Ecoli rRNA inh: .; Ecoli rRNA inh OD600: .; Ecoli rRNA inh RFP: .; T cruzi inh: -16; ALR H2O2 inh: 12; Beta cell apopt: 2; B2AR ag: -4&3; Bfl-1 A1 inh: 1.5; Calb FLC: .; LANA-H2B inh: 1.4
Listed for CC(Oc1c(Cl)cccc1Cl)C1=NCCN1 (configuration not stated) = Ecoli rRNA inh: .; Ecoli rRNA inh OD600: .; Ecoli rRNA inh RFP: .; T cruzi inh: 0; ALR H2O2 inh: -8; Beta cell apopt: 2; B2AR ag: .; Bfl-1 A1 inh: -1.1; Calb FLC: .; LANA-H2B inh: -4.3

3 compounds drawn at random from the list so far, as already listed:
Every second line gives: Ecoli rRNA inh | Ecoli rRNA inh OD600 | Ecoli rRNA inh RFP | T cruzi inh | ALR H2O2 inh | Beta cell apopt | B2AR ag | Bfl-1 A1 inh | Calb FLC | LANA-H2B inh
[16] O=C(O)[C@@H]1[C@H]2C[C@H]3c4[nH]c5ccccc5c4CCN3C[C@@H]2CC[C@@H]1O
→ 9 | 5 | 39 | . | -20 | -3 | -12 | -0.4 | . | 4.8
[29] Cc1coc2c1C(=O)C(=O)c1c-2ccc2c1CCCC2(C)C
→ . | . | . | -18 | 5 | 0 | 7 | -0.4 | 13 | -17
[32] CN(C)CCCN1c2ccccc2Sc2ccccc21
→ . | . | . | 10 | 98* | -4 | 33 | ? | . | 6.6
